Screening results (PubChem BioAssay)
Ran FRET = inhibitors of Ran–importin-beta complex formation, primary screen, biochemical, CFP-Ran/YFP-importin-beta FRET, RCC1, cell-free (AID 434961). Regulator of chromosome condensation (Homo sapiens) + GTP-binding nuclear protein Ran …. CFP-Ran/YFP-importin-beta FRET, cell-free; active compounds read high. inhibition, %. 7,700 tested, 0.2% active;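 active = more than half of the replicate wells above 15% inhibition; inconclusive = exactly half above it; inactive = fewer than half above it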;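 note: 0% = DMSO wells and 100% inhibition = RanGDP control wells on each plate; stock of unstated strength diluted about 400-fold; mean of two wells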
Starred values were filed as active, the others as inactive. An excerpt; count on the stated rates, not on these rows.

For Cc1ccc(S(=O)(=O)N(C)C[C@@H]2Oc3ccc(NS(C)(=O)=O)cc3C(=O)N([C@H](C)CO)C[C@H]2C)cc1 the results were Ran FRET 4.0.
Screening COc1ccc(NC(=O)N(C)C[C@@H]2Oc3c(cccc3N(C)C)C(=O)N([C@@H](C)CO)C[C@H]2C)cc1 returned Ran FRET -3.2.
C[C@@H]1CN([C@@H](C)CO)C(=O)c2cc(N(C)C)ccc2O[C@@H](C)CCCCO[C@@H]1CN(C)Cc1ccncc1 was read as Ran FRET 1.0.
`COc1ccc(NC(=O)Nc2ccc3c(c2)C(=O)N([C@H](C)CO)C[C@@H](C)[C@H](CN(C)S(=O)(=O)c2cn(C)cn2)O3)cc1` gave Ran FRET 5.0.
Screening C[C@@H]1CN([C@@H](C)CO)C(=O)c2cccc(NC(=O)c3ccc(-c4nccs4)cc3)c2O[C@H]1CN(C)C(=O)Nc1cccc2ccccc12 returned Ran FRET 3.0.
`C[C@@H]1CN([C@@H](C)CO)C(=O)Cc2cc(NC(=O)Nc3ccccc3)ccc2O[C@@H]1CN(C)C(=O)Nc1ccc(F)cc1` gave Ran FRET 4.5.
For CC(C)NC(=O)Nc1ccc2c(c1)C(=O)N([C@@H](C)CO)C[C@@H](C)[C@H](CN(C)S(=O)(=O)c1cccs1)OCCCC[C@@H](C)O2 the results were Ran FRET 0.4.
For C[C@H](CO)N1C[C@H](C)[C@H](CN(C)C(=O)NC2CCCCC2)Oc2c(NC(=O)c3ccncc3)cccc2C1=O the results were Ran FRET -0.7.
Screening CNC[C@@H]1Oc2c(NS(=O)(=O)c3ccc(Cl)cc3)cccc2C(=O)N([C@@H](C)CO)C[C@H]1C returned Ran FRET 4.9.
`C[C@H]1CN([C@@H](C)CO)C(=O)Cc2cc(N(C)C)ccc2O[C@H]1CN(C)S(=O)(=O)c1ccccc1` gave Ran FRET -0.4.
`CNC[C@@H]1Oc2c(NC(=O)c3nc4ccccc4s3)cccc2C(=O)N([C@H](C)CO)C[C@@H]1C` gave Ran FRET -4.0.
For C[C@H](CO)N1C[C@H](C)[C@H](CN(C)Cc2ccncc2)OCc2cn(nn2)CCCC1=O the results were Ran FRET 3.3.
COc1ccc(CN(C)C[C@H]2Oc3ccc(NC(=O)c4ccncc4)cc3CC(=O)N([C@@H](C)CO)C[C@@H]2C)cc1 was read as Ran FRET 1.3.
For C[C@H](CO)N1C[C@H](C)[C@@H](CN(C)C(=O)Nc2ccc(C(F)(F)F)cc2)Oc2c(NC(=O)C3CCOCC3)cccc2C1=O the results were Ran FRET inconclusive.
For C[C@H](CO)N1C[C@H](C)[C@H](CN(C)S(=O)(=O)c2cn(C)cn2)Oc2c(NC(=O)Nc3cccc4ccccc34)cccc2C1=O the results were Ran FRET 2.5.
For C[C@@H]1CN([C@@H](C)CO)C(=O)Cc2cc(NC(=O)C3CC3)ccc2O[C@H]1CN(C)C(=O)Nc1ccc(F)cc1 the results were Ran FRET 0.4.
For C[C@@H]1CN([C@@H](C)CO)C(=O)c2cc(NC(=O)Cc3ccccc3)ccc2O[C@@H](C)CCCCO[C@@H]1CN(C)C(=O)c1ccncc1 the results were Ran FRET 1.9.
Screening C[C@@H]1CN([C@H](C)CO)C(=O)c2cc(N(C)C)ccc2O[C@H]1CN(C)Cc1ccc2c(c1)OCO2 returned Ran FRET 5.7.
C[C@H]1CN([C@@H](C)CO)C(=O)Cc2cc(NC(=O)CCN3CCOCC3)ccc2O[C@@H]1CN(C)S(=O)(=O)c1cn(C)cn1 was read as Ran FRET -5.8.
C[C@@H]1CCCCO[C@@H](CN(C)C(=O)Nc2ccc(F)cc2)[C@@H](C)CN([C@H](C)CO)C(=O)c2cc(NS(=O)(=O)c3ccccc3)ccc2O1 was read as Ran FRET 0.2.
Screening C[C@H]1CN([C@@H](C)CO)C(=O)Cc2cc(NC(=O)CCN3CCOCC3)ccc2O[C@H]1CN(C)C(=O)Nc1ccccc1 returned Ran FRET 1.0.
COc1ccc(CN(C)C[C@@H]2Oc3c(NS(=O)(=O)c4ccc(Cl)cc4)cccc3C(=O)N([C@@H](C)CO)C[C@@H]2C)cc1 was read as Ran FRET -3.5.
CCCN(C)C[C@@H]1Oc2ncc(C#CCN(C)C)cc2C(=O)N([C@H](C)CO)C[C@@H]1C was read as Ran FRET -0.9.
`CNC[C@H]1OCCCC[C@H](C)Oc2ccc(NS(=O)(=O)c3c(C)noc3C)cc2C(=O)N([C@H](C)CO)C[C@@H]1C` gave Ran FRET inconclusive.
Screening Cc1noc(C)c1NC(=O)N(C)C[C@@H]1Oc2ccc(NC(=O)Nc3ccc(F)cc3)cc2CC(=O)N([C@H](C)CO)C[C@@H]1C returned Ran FRET -1.3.
For Cc1cc(C(=O)Nc2cccc3c2O[C@@H](CN(C)C(=O)Nc2c(C)noc2C)[C@H](C)CN([C@@H](C)CO)C3=O)n(C)n1 the results were Ran FRET -0.5.
`Cc1noc(C)c1S(=O)(=O)N(C)C[C@@H]1Oc2ccc(NC(=O)NC(C)C)cc2CC(=O)N([C@H](C)CO)C[C@H]1C` gave Ran FRET -8.9.
Screening C[C@@H]1CCCCO[C@@H](CN(C)C(=O)Nc2cccc3ccccc23)[C@H](C)CN([C@@H](C)CO)C(=O)c2cc(N(C)C)ccc2O1 returned Ran FRET -2.8.
Screening COc1ccc(NC(=O)Nc2ccc3c(c2)C(=O)N([C@@H](C)CO)C[C@@H](C)[C@@H](CN(C)S(=O)(=O)c2ccc(OC)cc2)O3)cc1 returned Ran FRET -0.1.
Screening COc1ccc(NC(=O)Nc2ccc3c(c2)C(=O)N([C@@H](C)CO)C[C@@H](C)[C@H](CN(C)S(C)(=O)=O)O3)cc1 returned Ran FRET -3.0.
For C[C@@H]1CCCCO[C@H](CN(C)Cc2ccncc2)[C@H](C)CN([C@H](C)CO)C(=O)c2cc(NC(=O)Nc3ccccc3)ccc2O1 the results were Ran FRET 4.4.
For C[C@@H]1CN([C@H](C)CO)C(=O)c2cccc(NC(=O)NC3CCCCC3)c2O[C@@H]1CN(C)S(=O)(=O)c1cccs1 the results were Ran FRET 1.9.
For C[C@@H]1CCCCO[C@H](CN(C)C)[C@H](C)CN([C@@H](C)CO)C(=O)c2cc(N(C)C)ccc2O1 the results were Ran FRET -0.6.
For C[C@@H]1CN([C@H](C)CO)C(=O)c2cccc(NS(=O)(=O)c3ccc(Cl)cc3)c2O[C@@H]1CN(C)Cc1ccc2c(c1)OCO2 the results were Ran FRET 3.8.
`Cc1cc(C(=O)Nc2cccc3c2O[C@@H](CN(C)S(=O)(=O)c2cccs2)[C@H](C)CN([C@@H](C)CO)C3=O)n(C)n1` gave Ran FRET inconclusive.
C[C@@H]1CN([C@@H](C)CO)C(=O)Cc2cc(NC(=O)Nc3cccc4ccccc34)ccc2O[C@H]1CN(C)C(=O)NC1CCCCC1 was read as Ran FRET 0.5.
Cc1noc(C)c1S(=O)(=O)Nc1ccc2c(c1)C(=O)N([C@@H](C)CO)C[C@H](C)[C@H](CN(C)C)OCCCC[C@H](C)O2 was read as Ran FRET 0.9.
C[C@@H]1CN([C@@H](C)CO)C(=O)c2cc(NC(=O)c3ccncc3)ccc2O[C@@H](C)CCCCO[C@H]1CN(C)C(=O)C1CCCCC1 was read as Ran FRET -0.6.
For Cc1noc(C)c1S(=O)(=O)Nc1cccc2c1O[C@H](CN(C)Cc1ccc(C(F)(F)F)cc1)[C@H](C)CN([C@H](C)CO)C2=O the results were Ran FRET 5.1.
Screening C[C@@H]1CN([C@H](C)CO)C(=O)c2cccc(N(C)C)c2O[C@@H]1CN(C)Cc1ccc(Cl)c(Cl)c1 returned Ran FRET -0.6.

Quoted from above (five entries):
Screening C[C@H]1CN([C@@H](C)CO)C(=O)Cc2cc(NC(=O)CCN3CCOCC3)ccc2O[C@H]1CN(C)C(=O)Nc1ccccc1 returned Ran FRET 1.0.
COc1ccc(CN(C)C[C@@H]2Oc3c(NS(=O)(=O)c4ccc(Cl)cc4)cccc3C(=O)N([C@@H](C)CO)C[C@@H]2C)cc1 was read as Ran FRET -3.5.
CCCN(C)C[C@@H]1Oc2ncc(C#CCN(C)C)cc2C(=O)N([C@H](C)CO)C[C@@H]1C was read as Ran FRET -0.9.
`CNC[C@H]1OCCCC[C@H](C)Oc2ccc(NS(=O)(=O)c3c(C)noc3C)cc2C(=O)N([C@H](C)CO)C[C@@H]1C` gave Ran FRET inconclusive.
Screening Cc1noc(C)c1NC(=O)N(C)C[C@@H]1Oc2ccc(NC(=O)Nc3ccc(F)cc3)cc2CC(=O)N([C@H](C)CO)C[C@@H]1C returned Ran FRET -1.3.

The main list resumes, starting four compounds before the break.
Cc1noc(C)c1S(=O)(=O)Nc1ccc2c(c1)C(=O)N([C@@H](C)CO)C[C@H](C)[C@H](CN(C)C)OCCCC[C@H](C)O2 was read as Ran FRET 0.9.
C[C@@H]1CN([C@@H](C)CO)C(=O)c2cc(NC(=O)c3ccncc3)ccc2O[C@@H](C)CCCCO[C@H]1CN(C)C(=O)C1CCCCC1 was read as Ran FRET -0.6.
For Cc1noc(C)c1S(=O)(=O)Nc1cccc2c1O[C@H](CN(C)Cc1ccc(C(F)(F)F)cc1)[C@H](C)CN([C@H](C)CO)C2=O the results were Ran FRET 5.1.
Screening C[C@@H]1CN([C@H](C)CO)C(=O)c2cccc(N(C)C)c2O[C@@H]1CN(C)Cc1ccc(Cl)c(Cl)c1 returned Ran FRET -0.6.
CC(C)NC(=O)N(C)C[C@H]1Oc2ccc(NC(=O)C3CC3)cc2CC(=O)N([C@@H](C)CO)C[C@H]1C was read as Ran FRET -2.0.
For C[C@H]1CCCCO[C@H](CN(C)Cc2ccc3c(c2)OCO3)[C@@H](C)CN([C@@H](C)CO)C(=O)c2cc(NS(=O)(=O)c3ccccc3)ccc2O1 the results were Ran FRET 3.0.
Cc1noc(C)c1NC(=O)N(C)C[C@@H]1OCCCC[C@H](C)Oc2ccc(NC(=O)CCC(F)(F)F)cc2C(=O)N([C@H](C)CO)C[C@@H]1C was read as Ran FRET -0.3.
For CNC[C@@H]1Oc2ccc(NC(=O)Cn3cnnn3)cc2CC(=O)N([C@@H](C)CO)C[C@H]1C the results were Ran FRET -2.5.
C[C@@H]1CN([C@H](C)CO)C(=O)c2cccc(NC(=O)c3cnccn3)c2O[C@H]1CN(C)C(=O)NC1CCCCC1 was read as Ran FRET -2.4.
Cc1ccc(S(=O)(=O)Nc2ccc3c(c2)CC(=O)N([C@H](C)CO)C[C@H](C)[C@H](CN(C)C(=O)Nc2c(C)noc2C)O3)cc1 was read as Ran FRET -2.1.
C[C@@H]1CN([C@@H](C)CO)C(=O)c2cccc(NC(=O)Nc3ccccc3)c2O[C@H]1CN(C)C(=O)NC1CCCCC1 was read as Ran FRET -2.4.
CNC[C@H]1Oc2ccc(NS(=O)(=O)c3ccccc3)cc2C(=O)N([C@@H](C)CO)C[C@H]1C was read as Ran FRET 4.3.
`CNC[C@@H]1Oc2ccc(NC(=O)Cc3ccccc3)cc2CC(=O)N([C@H](C)CO)C[C@@H]1C` gave Ran FRET 1.3.
`C[C@@H]1CN([C@H](C)CO)C(=O)c2cc(NC(=O)NC3CCCCC3)ccc2O[C@H]1CN(C)S(=O)(=O)c1ccccc1` gave Ran FRET -1.3.
For Cc1noc(C)c1NC(=O)Nc1ccc2c(c1)C(=O)N([C@H](C)CO)C[C@H](C)[C@H](CN(C)C(=O)C1CCCCC1)OCCCC[C@@H](C)O2 the results were Ran FRET 7.5.
C[C@H]1CN([C@@H](C)CO)C(=O)c2cc(NC(=O)C3CC3)ccc2O[C@@H]1CN(C)Cc1ccc(C(=O)O)cc1 was read as Ran FRET -2.0.
C[C@@H]1CN([C@H](C)CO)C(=O)c2cc(NS(=O)(=O)c3ccccc3)ccc2O[C@@H](C)CCCCO[C@@H]1CN(C)Cc1ccncc1 was read as Ran FRET 5.6.
For C[C@@H]1CN([C@@H](C)CO)C(=O)c2cc(NC(=O)Cn3cnnn3)ccc2O[C@H]1CN(C)C(=O)Nc1cccc2ccccc12 the results were Ran FRET -0.8.
For C[C@@H]1CN([C@H](C)CO)C(=O)c2cccc(NC(=O)C3CCOCC3)c2O[C@H]1CN(C)Cc1ccc(Oc2ccccc2)cc1 the results were Ran FRET -1.6.
C[C@@H]1CN([C@@H](C)CO)C(=O)c2cc(NC(=O)Cc3cn(C)c4ccccc34)ccc2O[C@@H]1CN(C)CC1CC1 was read as Ran FRET 1.2.
Screening COc1ccc(NC(=O)N(C)C[C@H]2Oc3ccc(NS(=O)(=O)c4ccccc4)cc3C(=O)N([C@@H](C)CO)C[C@H]2C)cc1 returned Ran FRET -1.6.
COc1ccc(S(=O)(=O)N(C)C[C@@H]2Oc3ccc(NC(=O)CCCN(C)C)cc3CC(=O)N([C@@H](C)CO)C[C@H]2C)cc1 was read as Ran FRET inconclusive.
For C[C@H](CO)N1C[C@H](C)[C@H](CN(C)S(=O)(=O)c2ccc(Cl)cc2)Oc2c(NC(=O)Nc3cccc4ccccc34)cccc2C1=O the results were Ran FRET 3.9.
C[C@@H]1CN([C@@H](C)CO)C(=O)c2cccc(NS(C)(=O)=O)c2O[C@@H]1CN(C)C(=O)NC1CCCCC1 was read as Ran FRET inconclusive.
Screening C[C@H](CO)N1C[C@H](C)[C@H](CN(C)C(=O)Nc2cccc3ccccc23)Oc2ccc(NC(=O)Cn3cnnn3)cc2CC1=O returned Ran FRET -0.7.
Screening C[C@@H]1CN([C@@H](C)CO)C(=O)c2cc(NC(=O)c3ccncc3)ccc2O[C@@H](C)CCCCO[C@@H]1CN(C)S(=O)(=O)c1ccccc1 returned Ran FRET 7.2.
Screening C[C@@H]1CCCCO[C@@H](CN(C)C(=O)CCC(F)(F)F)[C@@H](C)CN([C@H](C)CO)C(=O)c2cc(N(C)C)ccc2O1 returned Ran FRET -2.0.
